Screening results as filed in PubChem.
Polio RdRp inh: poliovirus RNA polymerase inhibition; AID 588519; 0.66% of 150,000 active; P03300; poliovirus polymerase elongation, fluorescence polarization; stronger effect = lower value; % elongation, % (compound at 16.7 µg/mL); in the data active = % elongation below about 90%; note: some results filed as inactive read as strong as hits
Mtb MenB inh: blocks the Mycobacterium tuberculosis MenB enzyme. MenB enzyme assay, absorbance read-out; some hits fall short of the stated cut. inhibition, %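 (about 12 µg/mL by stock and volumes)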. 0.43% of 100,000 active;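 active = mean of two replicates above 30%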;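 note: 0% = no compound and 100% = wells with inactive enzyme; the first replicate is given; strong numbers were not always called active; inactives centre near -10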
Target sequence (P9WNP5 whole entry, looked up): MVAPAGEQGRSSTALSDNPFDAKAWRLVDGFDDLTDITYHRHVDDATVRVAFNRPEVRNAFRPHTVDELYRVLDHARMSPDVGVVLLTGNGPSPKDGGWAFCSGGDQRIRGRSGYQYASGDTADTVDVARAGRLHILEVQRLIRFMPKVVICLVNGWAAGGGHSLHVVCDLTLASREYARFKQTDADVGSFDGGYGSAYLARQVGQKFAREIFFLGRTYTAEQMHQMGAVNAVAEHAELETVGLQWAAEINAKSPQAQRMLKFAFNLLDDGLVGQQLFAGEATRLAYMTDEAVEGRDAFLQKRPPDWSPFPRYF
Mtb MbtI inh: inhibitors of Mycobacterium tuberculosis siderophore enzyme MbtI | purified MbtI enzyme, fluorescence intensity read-out | AID 493033 | inhibition, %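 (about 17 µg/mL by stock and volumes)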 | P9WFX0 | 0.89% of 100,000 active;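 active = above 50% in both replicates, above 80% if mildly self-fluorescent; inactive = the rest, strongly fluorescent compounds included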;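 note: 0% = mean of negative and 100% = mean of positive controls; one replicate is shown; some compounds called inactive have numbers as strong as hits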
Target sequence (P9WFX0 whole entry, looked up): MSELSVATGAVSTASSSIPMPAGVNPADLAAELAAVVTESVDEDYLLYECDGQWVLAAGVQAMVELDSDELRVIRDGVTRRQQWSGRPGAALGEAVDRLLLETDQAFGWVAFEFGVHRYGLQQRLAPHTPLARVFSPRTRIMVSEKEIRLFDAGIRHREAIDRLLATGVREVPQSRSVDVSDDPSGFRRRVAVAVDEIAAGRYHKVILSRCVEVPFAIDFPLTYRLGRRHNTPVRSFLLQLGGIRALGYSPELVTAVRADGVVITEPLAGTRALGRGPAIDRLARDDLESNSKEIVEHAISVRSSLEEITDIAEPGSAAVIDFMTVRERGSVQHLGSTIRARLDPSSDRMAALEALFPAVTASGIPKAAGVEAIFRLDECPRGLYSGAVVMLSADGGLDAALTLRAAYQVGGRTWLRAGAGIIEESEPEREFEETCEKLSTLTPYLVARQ
Polio RdRp inh intensity: further read-out of Polio RdRp inh, marked with its call; % elongation; measured here: total intensity read-out; formula for this scale not given here;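 total fluorescence in place of polarization; lower means less elongation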
The depositor's hits bear a star; . = not tested or not shown. Compounds as they come; about 1.7% have a hit in one of these screens.

Key to letters: A = Polio RdRp inh; B = Polio RdRp inh intensity; C = Mtb MenB inh; D = Mtb MbtI inh
Cc1c2cc(-c3cccs3)sc2nc2c(O)cc(=O)[nH]c12
  A = 99; B = 128; C = -44; D = .
O=S(=O)(NCc1csc(-c2cccs2)n1)c1cccs1
  A = 105; B = 103; C = -11; D = -64
O=C(CCC(=O)c1cccs1)Nc1nnc(C2CC2)s1
  A = 95; B = 101; C = 10; D = -32
COC(=O)C(Sc1c[nH]c2ccccc12)(C(F)(F)F)C(F)(F)F
  A = 97; B = 99; C = 21; D = 0
CCN(CC)c1ccc(C(=O)OCC(=O)NCc2ccccc2Cl)cc1
  A = 102; B = 108; C = .; D = 0
CNC(=S)N/N=C/c1cccnc1
  A = 101; B = 104; C = -6; D = 14
Cc1ccc(CN(C)C(=O)c2ccc(C)c(NC(=O)c3ccco3)c2)o1
  A = 103; B = 97; C = -26; D = 0
CCCOc1ccc(CCN)cc1Cl
  A = 101; B = 102; C = 5; D = -5
CCC(=O)n1nc(-c2ccc(OC)cc2)nc1SC
  A = 100; B = 99; C = 11; D = 1
O=C(CSc1nc2ccccc2o1)OCc1cc(=O)oc2cc3c(cc12)CCC3
  A = 100; B = 96; C = -10; D = 0
CCOC(=O)c1ccc(CC(=O)c2cc(CC)c(O)cc2O)o1
  A = 103; B = 97; C = 20; D = 4
CC1CCN(CN2CC(Cn3c4ccccc4c4ccccc43)OC2=O)CC1 (configuration not stated)
  A = 98; B = 99; C = -7; D = -2
COc1ccc(C(=O)N2CCC(Cc3ccccc3)CC2)cc1OC
  A = 107; B = 107; C = -6; D = .
S=c1nc[nH]c2ccccc12
  A = 105; B = 104; C = -10; D = 22
Cc1cc(C)n(CC(O)COc2cccc3ccccc23)n1 (configuration not stated)
  A = 100; B = 101; C = .; D = -5
CC(C)CCn1c(=O)c2ccccc2n2c(COC(=O)c3ccc(S(=O)(=O)N(C)C)cc3)nnc12
  A = 103; B = 99; C = -18; D = 19
N#Cc1ccc(-c2cccc(C(F)(F)F)c2)o1
  A = 102; B = 104; C = 6; D = 48
CC(=O)N1CCc2cc(S(=O)(=O)NC(CC(C)C)C(=O)NCc3ccc(Cl)cc3)ccc21 (configuration not stated)
  A = 104; B = 107; C = -23; D = -2
O=C(Nc1ccccc1I)C1CC(=O)N(c2ccccc2)C1 (configuration not stated)
  A = 103; B = 100; C = -18; D = .
CCOC(=O)Cn1c2ccc(F)cc2c2nc3ccccc3nc21
  A = 103; B = 105; C = -7; D = -9
Cc1cc(C)nc(NS(=O)(=O)c2ccc(NC(=O)c3ccc(N4C(=O)CCC4=O)cc3)cc2)n1
  A = 99; B = 108; C = 5; D = 18
COC(=O)CN(c1ccccc1)S(=O)(=O)c1ccc(OC)cc1
  A = 103; B = 104; C = -34; D = -2
O=C(N1CCCCC1)C1(c2ccccc2)CCOCC1
  A = 101; B = 102; C = 29; D = -5
CC1CCCC(C)N1CCNC(=O)Nc1ccc(Cl)cc1 (configuration not stated)
  A = 102; B = 97; C = 6; D = 1
Cc1onc(-c2c(Cl)cccc2Cl)c1C1=NCCO1
  A = 99; B = 101; C = 7; D = 0
O=C(Nc1ccccc1C(=O)NCc1ccccc1)c1ccco1
  A = 104; B = 101; C = -5; D = -43
Cc1sc2nc(CN3CCCC3)nc(N3CCC(C(N)=O)CC3)c2c1C
  A = 103; B = 105; C = 5; D = 2
Brc1ccc(-c2csc(=NC3CC3)n2N=C2CCCC2)s1
  A = 105; B = 93; C = -46; D = 6
CC1CCCC(NC(=O)CSc2ncccc2C(=O)O)C1C (configuration not stated)
  A = 105; B = 105; C = -24; D = -7
Cc1cc(C)cc(NS(=O)(=O)c2ccc3c(c2)OCCN3C(=O)c2ccco2)c1
  A = 102; B = 107; C = 0; D = -9
CCOC(=O)CCCn1c(=O)c2cccn2c2ccccc21
  A = 106; B = 107; C = 2; D = -9
CC(C(=O)NCc1ccc2c(c1)OCO2)N(c1ccccc1)S(C)(=O)=O (configuration not stated)
  A = 104; B = 102; C = -49; D = -9
CS(=O)(=O)NCCn1ccc2ccccc21
  A = 98; B = 101; C = 4; D = -2
CC(C)(C)C(O)(CCc1ccccc1)Cn1cncn1 (configuration not stated)
  A = 95; B = 100; C = -3; D = 8
COc1ccc(-c2cc(N)n[nH]2)c(OC)c1
  A = 102; B = 104; C = -66; D = -62
Cc1cc(C)n(C(C)CC(=O)NCc2cccs2)n1 (configuration not stated)
  A = 100; B = 104; C = -22; D = -12
N#CCCn1cc(/C=C/C(=O)O)c2ccccc21
  A = 106; B = 110; C = 6; D = 24
NNC(=O)C1CCCCC1
  A = 101; B = 104; C = -15; D = 5
CCOC(=O)c1cc(Br)ccc1OCc1ccccc1Cl
  A = 100; B = 105; C = 5; D = .
O=C1CCCCC1Sc1nnc(-c2ccco2)n1Cc1ccccc1 (configuration not stated)
  A = 101; B = 111; C = -7; D = -7
CCOc1ccc(S(=O)(=O)NCC(=O)OCN2C(=O)c3ccccc3C2=O)cc1
  A = 113; B = 108; C = -14; D = -12
NN=C(c1ccccc1)c1ccccc1
  A = 101; B = 102; C = 1; D = 19
Cc1nn(-c2ccc(Cl)cc2)c2sc(C(=O)ONC3=NCCCCC3)cc12
  A = 100; B = 100; C = -2; D = -7
O=C(CN1CCCc2ccccc21)NCc1ccccc1Cl
  A = 107; B = 111; C = -30; D = -19
Fc1cccc2ncnc(OCc3ccccc3)c12
  A = 106; B = 99; C = -5; D = .
Cc1ccc(-c2cc(NC(=O)CN(C)CC3COc4ccccc4O3)on2)cc1 (configuration not stated)
  A = 102; B = 104; C = -25; D = -2
CC1CCCC(C)N1NC(=O)CCN1C(=O)S/C(=C\c2cccs2)C1=O (configuration not stated)
  A = 105; B = 108; C = -30; D = 5
Cc1cccc(N2C(=NC(=O)c3ccc(Br)cc3)SC3CS(=O)(=O)CC32)c1 (configuration not stated)
  A = 101; B = 104; C = -2; D = 7
COc1ccc(C(=O)Sc2nnc(-c3cccs3)n2-c2ccccc2)cc1
  A = 98; B = 100; C = -22; D = -10
CC1CCN(S(=O)(=O)c2ccc(F)c(F)c2)CC1
  A = 102; B = 104; C = .; D = -2
COc1ccc(-c2[nH]nc3c2C(c2ccc(N(C)C)cc2)C2=C(CC(C)(C)CC2=O)N3)cc1 (configuration not stated)
  A = 103; B = 105; C = -8; D = -2
Cc1cc(/C=C(\C#N)C(=O)OC(C)C)c(C)n1-c1cc(Cl)ccc1Cl
  A = 101; B = 108; C = -5; D = -3
CCC1=NC(c2ccccc2OC)N(O)C1(C)C (configuration not stated)
  A = 103; B = 109; C = -24; D = -1
CCC(c1nnc(SC/C(O)=C(\C#N)c2nc3ccccc3[nH]2)n1Cc1ccccc1)N(C)C (configuration not stated)
  A = 99; B = 101; C = -3; D = 9
COc1ccccc1NC(=O)CSc1c2c(nc3ccccc13)CCC2
  A = 99; B = 101; C = -71; D = 13
COc1ccc(C(=O)COC(=O)CSc2nc(C)cc(C)n2)cc1OC
  A = 101; B = 109; C = -4; D = 6
CC(C)CNC(=O)c1cnn2c(C(F)F)cc(-c3ccccc3)nc12
  A = 100; B = 101; C = 9; D = 44
S=C1NC(c2ccccc2)=NCN1c1ccc(Cl)cc1
  A = 104; B = 99; C = -37; D = -9
Cc1cc(C(=O)Nc2ccc3c(c2)OCCO3)cs1
  A = 101; B = 102; C = -7; D = -10
CSc1nc(N2CCCCC2)c2c(c1C#N)CCCC2
  A = 105; B = 106; C = 2; D = 0

(more compounds)
Key to letters: A = Polio RdRp inh; B = Polio RdRp inh intensity; C = Mtb MenB inh; D = Mtb MbtI inh
CNC(=S)NCCc1c[nH]c2ccc(OC)cc12
  A = 103; B = 103; C = 5; D = 0
O=C(O)CCCn1c(=O)oc2ccccc21
  A = 105; B = 103; C = -7; D = -9
CCOC(=O)C1CCN(/C(C)=C2/C(=O)N(c3nc4ccccc4[nH]3)N=C2C)CC1
  A = 102; B = 104; C = 3; D = 26
Cc1cc(C)nc(SCC(=O)C2CC2)n1
  A = 101; B = 96; C = -1; D = .
COc1ccc(N2CCN(C(=O)CN(C)CC(=O)Nc3cccc(F)c3)CC2)cc1
  A = 102; B = 106; C = -4; D = -2
Cc1ccnc(SCC(=O)N2CCc3ccccc3C2)n1
  A = 101; B = 105; C = -12; D = 12
COc1ccc(C(=O)CSC2=NCCc3ccccc32)cc1
  A = 77*; B = 85*; C = 6; D = 67*
N/C(=N\c1nc2ccccc2s1)NC(=O)c1cccc(Cl)c1
  A = 99; B = 103; C = 2; D = -3
Fc1ccc(-c2noc3ncnc(N(Cc4ccco4)CC4CCCO4)c23)cc1 (configuration not stated)
  A = 101; B = 103; C = -13; D = -64
O=C(Nc1ccn(-c2ccccc2)n1)c1ccccc1Br
  A = 101; B = 101; C = .; D = -13
Cc1noc(C)c1COC(=O)c1ccc(S(=O)(=O)N(C)C)cc1
  A = 104; B = 107; C = 8; D = -7
CC(C)(C)c1ccc(C(=O)Nc2c3c(nn2C(C)(C)C)CSC3)cc1
  A = 101; B = 101; C = -20; D = 6
CC(Sc1nncs1)C(=O)N1c2ccccc2CC1C (configuration not stated)
  A = 100; B = 107; C = -31; D = -1
CCN(c1ccccc1)S(=O)(=O)c1ccc2[nH]cc(C(=O)N3CCC(C)CC3)c(=O)c2c1
  A = 101; B = 107; C = -14; D = -118
CC1Cc2cc(C(=O)CSc3nnc(Cc4cccs4)n3C)ccc2N1S(C)(=O)=O (configuration not stated)
  A = 96; B = 82; C = -25; D = 16

Molecules listed so far with a tert-butyl group, in the order listed:
Key to letters: A = Polio RdRp inh; B = Polio RdRp inh intensity; C = Mtb MenB inh; D = Mtb MbtI inh
CC(C)(C)C(O)(CCc1ccccc1)Cn1cncn1 (configuration not stated)
  A = 95; B = 100; C = -3; D = 8
CC(C)(C)c1ccc(C(=O)Nc2c3c(nn2C(C)(C)C)CSC3)cc1
  A = 101; B = 101; C = -20; D = 6

Going on with the list:
Key to letters: A = Polio RdRp inh; B = Polio RdRp inh intensity; C = Mtb MenB inh; D = Mtb MbtI inh
OC(c1ccccc1)C(O)c1ccccc1 (configuration not stated)
  A = 98; B = 99; C = -44; D = 2
Cn1c(=O)n(C)c2cc(Nc3nc4ccc(Cl)cc4n4nnnc34)ccc21
  A = 102; B = 104; C = -23; D = -5
Cc1cc(/C=N\NC(=O)COc2cccc3cccnc23)c(C)n1-c1cccnc1
  A = 102; B = 97; C = -9; D = 12
CC(Sc1ncnc2c1cnn2-c1ccccc1)C(=O)NC(N)=O (configuration not stated)
  A = 103; B = 107; C = 1; D = -6
CCOc1cc(/C=C2\C(=N)N3C(C)=CSC3=NC2=O)ccc1OCc1ccc2c(c1)OCO2
  A = 103; B = 109; C = -4; D = -4
CCCNC(=O)c1ccccc1N
  A = 100; B = 100; C = 3; D = .
OCc1nc2ccccc2n1Cc1ccc2ccccc2c1
  A = 99; B = 102; C = -9; D = 15
CC1Cc2ccccc2N1C(=S)Nc1ccc(S(N)(=O)=O)cc1 (configuration not stated)
  A = 99; B = 98; C = 10; D = 21
CCC12CN(S(=O)(=O)c3ccccc3)CC(CC)(CN(S(=O)(=O)c3ccccc3)C1)C2=O
  A = 99; B = 100; C = 10; D = 17
O=c1c(-c2nnnn2-c2ccc(Cl)cc2)c[nH]c2ccccc12
  A = 103; B = 96; C = 0; D = 6
NNC(=O)CNC(c1ccccc1)c1cc(Br)ccc1NC(=O)CCN1CCOCC1 (configuration not stated)
  A = 101; B = 100; C = -31; D = 5
N/C(=N/OC(=O)c1ccccc1)c1ccccn1
  A = 102; B = 102; C = -56; D = -8
O/N=C/c1c(OCc2ccccc2)ccc2ccccc12
  A = 106; B = 108; C = -13; D = .
CC(C)(C)OC(=O)N1CCC[C@H]1C(=O)OCC(=O)Nc1ccc2c(c1)OCCCO2
  A = 108; B = 111; C = -31; D = -8
CSc1ccccc1C(=O)NCc1ccc2c(c1)OCO2
  A = 100; B = 100; C = -1; D = -5
Cn1nc(C(C)(C)C)c(NC(=O)c2sccc2Cl)c1C(C)(C)C
  A = 104; B = 96; C = 8; D = 11
O=C(CSc1ncccn1)NCCc1ccccc1
  A = 101; B = 103; C = -8; D = -13
CC1=C(C#N)C(=O)NC(=O)/C1=C\c1ccc(-c2ccc(S(N)(=O)=O)cc2)o1
  A = 103; B = 103; C = -35; D = 0
O=C(O)CCCN1C(=O)/C(=C/c2ccc(-c3ccccc3F)o2)SC1=S
  A = .; B = .; C = -17; D = 1
O=c1oc2cc(O)ccc2cc1-c1csnn1
  A = 101; B = 105; C = -83; D = 114
CC(C)N(C(=O)Cn1nc(C(=O)O)c2ccccc2c1=O)C(C)C
  A = 105; B = 101; C = 6; D = -3
O=C(NCc1ccc2c(c1)OCO2)c1cc(=O)[nH]c2ccc(Br)cc12
  A = 100; B = 102; C = -1; D = -14
O=c1[nH]c(NC2CCN(Cc3ccccc3)CC2)nc2c1CCCC2
  A = 100; B = 102; C = 3; D = -1
Cc1ccc2c(COC(=O)CNC(=O)c3ccco3)cc(=O)oc2c1C
  A = 102; B = 100; C = -12; D = 13
CC/C(Cc1ccccc1)=N\NC(=O)Cn1nnc2ccccc21
  A = 100; B = 97; C = -6; D = -15
Cc1ccc2c(c1)N(C(=O)Nc1ccccc1)CC(C)O2 (configuration not stated)
  A = 103; B = 105; C = -15; D = -5

Ordered by SMILES length (lowest first): part of the list above
Key to letters: A = Polio RdRp inh; B = Polio RdRp inh intensity; C = Mtb MenB inh; D = Mtb MbtI inh
CC(C)(C)C(O)(CCc1ccccc1)Cn1cncn1 (configuration not stated)
  A = 95; B = 100; C = -3; D = 8
O=C(Nc1ccccc1I)C1CC(=O)N(c2ccccc2)C1 (configuration not stated)
  A = 103; B = 100; C = -18; D = .
O=C(O)CCCN1C(=O)/C(=C/c2ccc(-c3ccccc3F)o2)SC1=S
  A = .; B = .; C = -17; D = 1
